T cruzi inh – T. cruzi replication inhibition; inhibition, % (concentration not given with the values); T. cruzi beta-gal in NIH3T3, luminescence, 90 h; AID 1885; 300,000 tested, 1.4% active;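 active means mean inhibition across valid replicates above about 55%, limit read from the data; inconclusive means mean below that limit but half or more replicates reach it; inactive means mean below it, under half of replicates reach it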;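 further: signal also drops with host cell toxicity which is not excluded here; 0% = plate median of DMSO wells and 100% = zero luminescence signal; higher percent means less beta-gal luminescence so fewer parasites; stock transfer was 50 nL into about 50 µL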
Calb FLC – affects C. albicans growth with fluconazole; 300,000 tested, 0.57% active; growth inhibition, % (no concentration beside the values); C. albicans CaCi-2 (fluconazole-resistant clinical isolate) + fluconazole, Alamar Blue growth, 48 h;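 active means most replicates above 75%; inconclusive means exactly half above 75%; inactive means most below 75%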;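 further: all wells also contain fluconazole at 8 µg/ml as a sub-toxic cotreatment; 0% = median of DMSO wells and 100% = median of geldanamycin control wells; wells of about 8 µL received 7.5 nL stock; the first replicate is given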
Beta2AR agonist – agonists of human beta-2 adrenergic receptor inducing internalization; AID 504454; 340,000 tested, 0.43% active; Am2.2-beta2AR cells, FAP receptor internalization, flow cytometry; reference of the scale not given here; response, % (no concentration beside the values);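 active means response above a set limit, near 3 SD of response in nonfluorescent compounds, cut at about 42% in these data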;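 further: stock transfer was 100 nL into about 11 µL; a reference agonist was the positive control; negative values mostly stem from fluorescent compounds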
Target sequence (P07550 whole entry, looked up): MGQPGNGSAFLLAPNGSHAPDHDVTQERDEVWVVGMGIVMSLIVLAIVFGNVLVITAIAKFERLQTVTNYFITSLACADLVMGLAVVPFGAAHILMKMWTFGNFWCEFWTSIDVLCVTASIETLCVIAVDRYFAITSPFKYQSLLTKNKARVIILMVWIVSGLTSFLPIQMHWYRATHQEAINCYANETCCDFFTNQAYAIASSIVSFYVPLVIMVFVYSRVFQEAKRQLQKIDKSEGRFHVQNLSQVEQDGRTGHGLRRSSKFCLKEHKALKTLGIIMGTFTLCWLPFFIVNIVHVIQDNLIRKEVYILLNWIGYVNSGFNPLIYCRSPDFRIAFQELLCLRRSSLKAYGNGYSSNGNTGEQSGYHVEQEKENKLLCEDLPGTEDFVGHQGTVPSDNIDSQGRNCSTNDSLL
RanGTP-Imp inh – inhibitors of RanGTP-importin-beta interaction, primary screen, biochemical, FRET, CFP-Ran, YFP-importin-beta, homogeneous | cell-free CFP-Ran/YFP-importin-beta FRET ratio | inhibition, % (test concentration not listed) | 300,000 tested, 1.1% active;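 active means most replicates above 15%; inconclusive means exactly half above 15%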;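 further: 0% = DMSO wells and 100% = Ran loaded with GDP instead of GTP; wells of about 40 µL received 100 nL stock; the first replicate is given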
LANA-H2A inh – blocks KSHV LANA binding to histone H2A/H2B. AID 2629. cell-free LANA-H2A/H2B peptide, fluorescence polarization. 320,000 tested, 0.6% active. Q9QR71. inhibition, % (no concentration beside the values); in the data active means inhibition mostly above about 10%, no sharp cut-off; inactive means mostly below about 6.7%;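 further: stock transfer was 7.5 nL into about 10 µL; 0% = median of vehicle wells and 100% = median of positive control wells; one replicate is shown; the record names a cut of 25% in any replicate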
UCH37 inh – inhibitors of human deubiquitinating enzyme UCH37; Q9Y5K5; purified proteasome/UCH37, Ub-AMC cleavage fluorescence; inhibition, % (test concentration not listed); 330,000 tested, 0.33% active;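 active means mean of two replicates above 20%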;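 further: 0% = compound-free wells with enzyme and 100% = wells lacking proteasome; stock transfer was 100 nL into about 20 µL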
Target sequence (Q9Y5K5 whole entry, looked up): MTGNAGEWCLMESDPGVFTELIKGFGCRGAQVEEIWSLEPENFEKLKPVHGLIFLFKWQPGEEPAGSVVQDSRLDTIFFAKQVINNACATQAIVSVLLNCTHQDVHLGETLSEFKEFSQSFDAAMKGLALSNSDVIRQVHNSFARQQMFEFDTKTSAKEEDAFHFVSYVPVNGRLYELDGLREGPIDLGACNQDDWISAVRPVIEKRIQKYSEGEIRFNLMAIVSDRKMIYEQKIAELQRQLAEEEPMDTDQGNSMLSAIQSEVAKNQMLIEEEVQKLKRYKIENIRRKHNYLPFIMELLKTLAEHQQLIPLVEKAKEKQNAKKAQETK
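Material: human UCH37 enzyme supplied as purified proteasome complex / Amount: 0.15 nM proteasome as dispensed / Buffer or medium: pH 7.4 Tris-HCl (50 mM) with ovalbumin, ATP-MgCl2, DTT / Times: preincubation 30 min, reaction 25 min, room temperature / Technique: AMC fluorescence from Ub-AMC cleavage, excitation 355 nm, emission 460 nm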
Beta cell apopt – blocks beta cell apoptosis; protection from apoptosis, % (test concentration not listed); INS-1E cytokine-induced death, ATP luminescence, 48 h; percent of positive-control rescue, neutral wells zero; 300,000 tested, 0.8% active;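 active means all replicates at 75% or more, or half of them and the mean; inconclusive means half reach 75% but not the mean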;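 further: 0% = cytokine-treated negative control wells and 100% = positive control rescue; higher means more ATP so stronger rescue from cytokine killing; wells of about 40 µL received 100 nL stock; the first replicate is given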
A1 inh – inhibitors of the anti-apoptotic protein A1, read as caspase activation; caspase activation, % (no concentration beside the values); 330,000 tested, 0.066% active; AID 2462; MEF A1-2A-BIM cells, Caspase-Glo 3/7 luminescence, 3 h; percent of clofoctol response, vehicle zero;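 active means over half of replicate activation scores above 10%, or exactly half above 10 with the replicate mean above 10; inconclusive means replicate mean below 10 yet half the replicates above 10; inactive means over half of replicates below 10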;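 further: wells of about 30 µL received 50 nL stock; many hits fall short of the cut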
The depositor's hits bear a star; i = inactive; u = inconclusive; x = not tested or not shown.

SMILES,T cruzi inh,Calb FLC,Beta2AR agonist,RanGTP-Imp inh,LANA-H2A inh,UCH37 inh,Beta cell apopt,A1 inh
CCCCN(C)CCC(=O)Nc1ccc(C)cc1,11,0,15,0.0,3.6,4.8,-2,u
CCOc1cc(C(c2c(C)[nH][nH]c2=O)c2c(C)[nH][nH]c2=O)ccc1OS(=O)(=O)c1ccccc1,3,-10,3,-0.6,5.5,8.5,-3,1.2
Cc1ccccc1NC(=O)Cc1nc(COC(=O)c2cc([N+](=O)[O-])ccc2N)cs1,-1,3,11,7.5,-0.5,2.0,-2,-0.1
N#C/C(=C\c1ccc(O)cc1)C(=O)NCc1cccc(Cl)c1,-14,-1,6,5.3,0.7,4.2,-4,-0.2
CCO[C@H]1OC(C(=O)NCc2ccccc2)=C[C@@H](c2ccc(Br)cc2)[C@@H]1CCCO,16,2,-9,4.7,-0.4,4.4,3,0.4
CCNc1nc(OCCNC(C)=O)nc(N(C)C)n1,1,0,-2,3.1,-5.3,1.6,2,-0.3
COC(=O)c1[nH]c2cc(OC)ccc2c1NC(=O)CCN1CCN(Cc2ccc3c(c2)OCO3)CC1,2,-10,-9,2.9,x,-1.5,x,x
CC(C(=O)NCCCn1ccnc1)(c1ccccc1)c1ccccc1,-16,3,-1,-5.6,5.2,4.0,x,0.7
COC(=O)/C=C1/SC(=NC(=O)c2cccc([N+](=O)[O-])c2)NC1=O,-16,6,4,1.6,8.7,9.7,0,0.9
Cc1[nH]c2ccccc2c1NC(=O)CN1CCN(Cc2ccc3c(c2)OCO3)CC1,8,0,x,-15,x,-0.2,x,x
O=C(CC1CCCCC1)OCn1nnc2ccccc2c1=O,7,4,0,3.0,-1.5,1.5,-3,0.7
Cc1cc(C)c(NC(=O)CS(=O)CC(=O)Nc2ccc(F)cc2F)c(C)c1 (configuration not stated),-16,-5,-5,2.0,-1.8,2.2,0,0.0
CCC(C)NS(=O)(=O)c1cc2c3c(c1)CCN3C(=O)CC2 (configuration not stated),-13,2,14,4.4,0.1,1.5,-3,0.4
O=C(CCC1CCCC1)Nc1cc(C(F)(F)F)ccc1N1CCOCC1,18,-8,-9,1.6,5.8,1.6,7,-1.0
CCOC(=O)c1c(NC(=O)CSc2nnc(-c3cccc(C)c3)n2CC)sc(C(C)=O)c1C,21,16,11,-1.4,-2.3,6.8,-4,-0.2
CCOC(=O)c1sc(N)nc1-c1ccccc1,-3,-4,-3,2.3,-3.4,3.9,x,1.1
COc1ccc(-c2csc(N(CCCN(C)C)C(=O)c3cc(OC)c(OC)c(OC)c3)n2)cc1,51,-16,9,-1.4,1.4,0.8,x,0.7
CCCN1CCC(=O)N(CCO)CC1,-23,2,0,u,-3.3,3.4,8,2.1
COc1ccc(-n2c(C)n[nH]c2=O)cc1OC,2,15,-4,-1.4,-1.6,3.5,-6,0.3
COc1ccc(OC)c(CNS(=O)(=O)c2cc(CN3C(=O)c4cccnc4C3=O)ccc2OC)c1,-5,-5,-9,1.2,2.3,1.2,-4,0.7
O=c1cc(-c2ccccc2)nc2c(-c3ccccc3)c(C(F)(F)F)[nH]n12,-7,3,3,2.3,-1.4,i,x,-0.2
C=C(C)COc1ccc(-c2nc(N)nc(C(F)(F)F)c2-c2ccc(OC)cc2)c(O)c1,56*,-6,-5,-1.2,0.5,5.1,-2,0.0
O=C(NCc1ccc2c(c1)OCO2)c1cc(-c2cc(Cl)ccc2O)n[nH]1,-11,-1,-3,-1.0,-1.2,4.6,4,2.5
COc1cc(/C=N/NC(=O)CCc2c(C)n[nH]c2C)cc(OC)c1OC,-9,-2,1,1.9,2.5,x,-11,-0.9
Cc1ccccc1N1C(=O)C(Cl)=C(N2CCN(c3ccccc3)CC2)C1=O,4,4,-6,u,-7.3,2.2,-1,0.2
Cc1oc(C(=O)O)cc1COc1cccc2ccccc12,-14,28,8,-5.7,0.6,3.5,-7,-0.2
Nc1nc(-c2ccccc2)c(N=Nc2ccccc2Cl)s1,31,101*,14,-5.9,4.6,14,5,-0.3
CCc1ccc(OC)c(S(=O)(=O)NCCOc2ccccc2)c1,2,18,-3,-5.5,-1.5,0.4,0,-0.1
COc1ccc(C(=O)C2CCCN(C(=O)c3cccs3)C2)cc1F (configuration not stated),3,-10,4,0.1,-1.2,-1.2,0,1.0
CC1=C(C(=O)OC(C)C)C(c2cccs2)NC(=O)N1 (configuration not stated),7,-3,-9,6.0,2.1,x,-3,-0.2
Cc1ccccc1NC(=O)CCC(=O)N/N=C/c1cccnc1,-17,5,3,0.1,1.9,x,-6,-0.2
CNC(=O)c1[nH]cnc1C(=O)Nc1ccccn1,-6,-5,-2,-0.1,1.6,3.3,-3,1.0
COc1cc(C(=O)Nc2nnc(CC(C)C)s2)c([N+](=O)[O-])cc1OC,7,-8,2,u,8.1,3.7,0,1.4
O=C(CNS(=O)(=O)c1ccc2ccccc2c1)OCc1csc(-c2ccccc2)n1,1,-29,4,0.4,-4.3,4.3,-6,-0.2
O=C(NNC(=O)c1ncc(Cl)c(Cl)c1Cl)c1ccc(F)cc1,-16,-1,-1,2.5,-2.0,-0.3,-1,0.5
Cn1nnnc1SCC(=O)NC1CCCc2ccccc21 (configuration not stated),-2,2,-1,0.4,0.5,1.5,0,-2.0
CC(C)OC(=O)c1cc(Cl)c(=O)n(Cc2ccc(Cl)cc2Cl)c1,4,7,1,u,-4.1,2.4,7,2.4
CCOc1ccccc1C(=O)Nc1cc(C)ccc1NC(=O)c1ccco1,13,8,-2,1.7,3.7,-0.7,-1,-0.5
N#Cc1nc(-c2ccc(Cl)cc2)oc1NCCc1ccccn1,13,1,2,3.3,0.7,-18,6,-0.2
COc1ccc(Cl)cc1-n1c(=S)sc2c(=O)[nH]c(SCC(=O)NCC3CCCO3)nc21 (configuration not stated),x,x,4,x,6.1,14,x,0.3
Cc1cc(NC(=O)CC(C)C)c(=O)n(Cc2ccccc2F)c1,0,12,-11,-1.1,8.4,6.9,2,1.6
CCOc1ccc(CCNC(=O)c2sc3nc4n(c(=O)c3c2C)CCC4)cc1,1,7,-15,0.1,-2.7,2.4,-1,-1.5
C/C(=N\OCC(=O)OCC(=O)N(C)c1ccccc1)c1ccc2c(c1)OCO2,x,x,3,x,-1.0,x,0,-0.8
Cn1cccc1C(=O)N1CCN(S(=O)(=O)c2ccccc2)CC1,-15,0,0,-1.0,7.8,1.7,1,0.3
Cc1cc(-c2ccc(Cl)cc2)n2nc(C)cc2n1,-9,10,0,1.0,-1.1,3.8,-2,-1.6
Cc1cc(C)c2[nH]c(=O)c(C(c3nnnn3Cc3ccc4c(c3)OCO4)N3CCC(C)CC3)cc2c1 (configuration not stated),53,-9,-3,-7.2,1.2,1.1,3,0.2
CC(C(=O)N(C)C)N(C#N)c1nc(N(C)C)nc(N(C)C)n1 (configuration not stated),-9,-12,1,0.9,2.1,5.2,-4,0.9
CCOC(=O)C(=CNc1ccc(N2CCOCC2)cc1)C(=O)OCC,11,-6,-12,0.2,-3.5,10,4,0.8
O=c1c(-c2nnc(SCc3ccc(Cl)cc3)o2)cccn1Cc1ccccc1,31,-2,4,7.5,1.0,i,2,-0.9
O=c1[nH]cnc2c1sc1nc(-c3ccccc3)c3c(c12)CCCC3,5,-9,-22,5.7,-0.8,-6.2,-5,1.2
Nc1cc(N)nc(SCC(=O)NC(=O)NC2CCCC2)n1,x,x,-4,x,-2.9,1.0,-5,-0.5
COCCNC(=O)Cn1nc(Cc2ccncc2)c2ccccc2c1=O,-11,3,21,2.4,0.8,1.9,-4,0.1
COC(=O)c1cnc2ccccc2n1,-7,-2,5,-3.6,-2.6,3.7,0,-1.3
O=C1N=c2ccccc2=C1c1sc(=S)n(NC(=O)c2ccccc2)c1O,-4,1,-1,-2.6,-0.7,x,-1,0.3
COc1cc(C)ccc1OCc1cc(C(=O)N2CCC(c3ccc(F)cc3)C2)no1 (configuration not stated),41,-8,2,-0.4,1.5,0.9,0,-5.6
CN(C)S(=O)(=O)c1ccc(Cl)c(NC(=O)COC(=O)c2cc(-c3ccccc3)nc3ccccc23)c1,12,-18,8,1.2,-2.8,-11,1,0.9
O=C(CCC(=O)N1CCOc2ccc(Cl)cc21)N1CCN(c2ccccn2)CC1,7,7,-10,-0.3,-1.7,0.6,2,0.0
Cc1ccc2nc(-c3ccccc3)c(NC(=O)c3ccco3)n2c1,1,13,-4,1.1,0.0,-1.0,0,0.9
Cc1ccc(S(=O)(=O)c2nc(-c3ccco3)oc2N2CCC(C)CC2)cc1,17,-7,-4,0.6,-7.5,3.1,x,-0.4
CCOc1ccccc1Oc1coc2cc(O)ccc2c1=O,-3,-3,2,u,-3.4,-174,-9,-1.9

Next part:
SMILES,T cruzi inh,Calb FLC,Beta2AR agonist,RanGTP-Imp inh,LANA-H2A inh,UCH37 inh,Beta cell apopt,A1 inh
CNC(=O)CSc1nc(N)c2c3c(sc2n1)CCC3,-5,26,-8,x,x,5.1,x,x
O=C(CSC1=NS(=O)(=O)c2ccccc2N1)Nc1nccs1,-9,-5,-1,-2.4,-1.5,5.0,-8,-0.7
Cc1ccc(NC(=O)c2csc3c2CCCC3)cc1,3,-30,2,3.4,-3.7,1.3,-4,-1.2
Cc1ccc(S(=O)(=O)NCc2ccncc2)cc1C,-79,29,-3,3.1,3.1,-0.7,90*,-1.4
Cc1ccc(NC(=O)CCSc2nnc(Cc3ccccc3)o2)cc1,5,-1,2,0.9,0.0,1.5,-6,0.2
Nc1ccccc1-c1ccccc1N,-10,-1,-1,-3.4,-3.3,1.2,4,0.7
CC(C)(C)NC(=O)C(Cc1ccccc1)N1C(=O)c2ccccc2C1=O (configuration not stated),-4,-4,-1,-3.9,3.8,1.3,-1,-0.4
Oc1ccc(Cl)cc1/C=C/c1ccc2cccc(O)c2n1,21,-1,9,-7.8,x,2.8,x,x
COc1ccc(C)cc1NC(=O)CCNC(=O)Cn1ccc2ccccc2c1=O,-3,2,-4,2.5,0.2,x,8,0.1
COc1cc(/C=C2\SC(c3ccccc3)=NC2=O)cc(Cl)c1O,-5,-17,-3,2.9,x,3.5,x,x
O=C(CCc1ccccc1)Nc1ccc(NC(=O)C2CC2)nc1,8,6,-7,-5.5,2.9,4.8,-2,0.7
O=C(Cc1c(F)cccc1Cl)Nc1ccc(S(=O)(=O)Nc2nccs2)cc1,-10,-1,10,4.3,3.6,0.6,-6,-0.8
O=C(Nc1nnc(-c2ccco2)o1)c1ccc(S(=O)(=O)N2CCOCC2)cc1,-10,-19,-6,-3.6,0.3,5.7,2,-0.6
COc1ccc2nc(NC(=O)C3CCCN(S(=O)(=O)c4cccs4)C3)sc2c1 (configuration not stated),34,20,14,1.4,-1.2,2.8,12,-0.1
Cc1cc(NC(=O)COC(=O)CCS(=O)(=O)c2cc(Cl)ccc2Cl)no1,-16,-5,-1,-5.0,-0.9,3.3,-9,0.2
